# BJeLR viab HTS: lowers viability of BJeLR cells | viability loss activity score, % (test concentration not listed) | BJeLR fibroblasts viability, CellTiterGlo ATP luminescence, 48 h; HRASV12, hTERT and SV40 LT/ST transformed | AID 2275 | 30,000 tested, 0.64% active; in the data active = viability loss activity score above about 50%; about a fifth of its hits are not listed in these tables;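 note: higher score means fewer live cells and less ATP luminescence; stock transfer was 50 or 100 nL into about 30 µL; 0% = vehicle wells and 100% = a reference killing control; one replicate is shown; the record names a cut of 85%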
# A1 inhib: blocks A1 activity; MEF A1-2A-BIM cells, caspase-Glo luminescence, 3 h; percent of clofoctol signal, DMSO as zero; caspase activation, % (test concentration not listed); 21,000 tested, 0.51% active; AID 2241;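 active = most replicate scores above 10, or exactly half above 10 with mean activity above 10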;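 note: effector caspase 3 and 7 activity cleaving a DEVD luciferin substrate; 50 nL library stock added to about 30 µL; numbers are from one replicate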
# An asterisk follows results filed as active; nt = not tested or not shown. The list is partial, so the mix of outcomes need not match the whole.
SMILES,BJeLR viab HTS,A1 inhib
Cc1cc(C)c(N2CCCC2C(=O)Nc2cccc(C(F)(F)F)c2)c(C)c1 (centres undefined),-3.1,nt
N#CC(C(=O)c1ccco1)c1nc2ccccc2[nH]1 (centres undefined),0.6,-3.4
Cc1noc(C)c1NC(=O)N(C)C[C@@H]1Oc2ccc(NC(=O)NC(C)C)cc2C(=O)N([C@H](C)CO)C[C@H]1C,-0.5,0.5
CC(C)NC(=O)Nc1cccc2c1O[C@H](CN(C)C(=O)Nc1ccc(C(F)(F)F)cc1)[C@@H](C)CN([C@@H](C)CO)C2=O,4.7,nt
CCC(C)NC(=O)c1ccc(NC2=NC3CS(=O)(=O)CC3S2)cc1 (centres undefined),-6.9,-0.2
C[C@@H]1CN([C@H](C)CO)C(=O)c2cccc(NC(=O)c3nc4ccccc4s3)c2O[C@H]1CN(C)S(=O)(=O)c1ccc(Cl)cc1,-12,nt
C[C@H]1CN([C@@H](C)CO)C(=O)c2cccc(NS(=O)(=O)c3ccc(Cl)cc3)c2O[C@H]1CN(C)C(=O)Nc1ccccc1,0.0,nt
C[C@H]1CN([C@@H](C)CO)C(=O)c2cccc(NC(=O)Nc3ccccc3)c2O[C@H]1CN(C)C,1.7,nt
COCc1cc(C)nc2sc3c(=O)[nH]c(-c4ccccc4O)nc3c12,3.5,1.1
CCOC(=O)COc1ccc(C2CC(C)=NN2c2ccccc2)cc1 (centres undefined),4.6,nt
C[C@H](CO)N1C[C@H](C)[C@H](CN(C)C(=O)NC2CCCCC2)Oc2ccc(NC(=O)Nc3cccc4ccccc34)cc2C1=O,-4.6,0.2
COc1ccc(CN(C)C[C@H]2Oc3c(NC(=O)Nc4ccccc4)cccc3C(=O)N([C@H](C)CO)C[C@H]2C)cc1,7.6,nt
C[C@@H]1CN([C@H](C)CO)C(=O)c2cc(NC(=O)Cn3cnnn3)ccc2O[C@@H]1CN(C)Cc1ccccc1,-1.0,0.0
CNS(=O)(=O)c1ccc2c(c1)C(=NO)c1cc(S(=O)(=O)NC)ccc1-2,-0.5,0.0
C[C@@H]1CN([C@@H](C)CO)C(=O)c2cc(NS(=O)(=O)c3cccs3)ccc2O[C@@H]1CN(C)S(=O)(=O)c1cccs1,-0.4,-0.5
Cc1ccc(S(=O)(=O)N(C)C[C@H]2Oc3ccc(NC(=O)NC(C)C)cc3C(=O)N([C@@H](C)CO)C[C@H]2C)cc1,4.6,0.1
CCCOc1ccc(CNC(=S)NCc2ccc(OC(C)C)cc2)cc1,1.6,-0.7
COc1ccc(S(=O)(=O)N(C)C[C@H]2Oc3c(NC(=O)Nc4ccccc4)cccc3C(=O)N([C@@H](C)CO)C[C@H]2C)cc1,2.2,nt
CC(C)(c1ccccc1)c1ccc(OCC(=O)NC2CCCC2)cc1,-2.2,0.1
O=C(Cc1ccccc1)NO,4.9,0.4

# Some of the entries so far, with two lines to a compound.
# Values run as follows: BJeLR viab HTS	A1 inhib
CNS(=O)(=O)c1ccc2c(c1)C(=NO)c1cc(S(=O)(=O)NC)ccc1-2
 : -0.5	0.0
C[C@@H]1CN([C@@H](C)CO)C(=O)c2cc(NS(=O)(=O)c3cccs3)ccc2O[C@@H]1CN(C)S(=O)(=O)c1cccs1
 : -0.4	-0.5
Cc1ccc(S(=O)(=O)N(C)C[C@H]2Oc3ccc(NC(=O)NC(C)C)cc3C(=O)N([C@@H](C)CO)C[C@H]2C)cc1
 : 4.6	0.1
CCCOc1ccc(CNC(=S)NCc2ccc(OC(C)C)cc2)cc1
 : 1.6	-0.7
COc1ccc(S(=O)(=O)N(C)C[C@H]2Oc3c(NC(=O)Nc4ccccc4)cccc3C(=O)N([C@@H](C)CO)C[C@H]2C)cc1
 : 2.2	nt
CC(C)(c1ccccc1)c1ccc(OCC(=O)NC2CCCC2)cc1
 : -2.2	0.1
O=C(Cc1ccccc1)NO
 : 4.9	0.4

# Continuation:
SMILES,BJeLR viab HTS,A1 inhib
COc1ccc(S(=O)(=O)N(C)C[C@@H]2Oc3ccc(NC(=O)Nc4cccc5ccccc45)cc3C(=O)N([C@H](C)CO)C[C@@H]2C)cc1,-1.1,-0.5
C[C@H](CO)N1C[C@H](C)[C@@H](CN(C)CC2CCCCC2)Oc2ccc(NS(=O)(=O)c3ccccc3)cc2C1=O,-2.1,-0.1
COc1ccc(CN(C)C[C@H]2Oc3ccc(NC(=O)Nc4ccc(F)cc4)cc3C(=O)N([C@H](C)CO)C[C@H]2C)cc1,-1.0,0.1
C[C@H](CO)N1C[C@H](C)[C@H](CN(C)C(=O)NC2CCCCC2)Oc2c(NC(=O)c3ccc(-c4nccs4)cc3)cccc2C1=O,3.1,nt
CC(=O)Nc1ccc(S(=O)(=O)NCc2ccc(C(=O)NCc3ccccc3)cc2)cc1,1.7,nt
CC1=C(c2ccc(C)cc2)S(=O)(=O)N=C1N1CCCC1,-1.7,0.8
Cc1noc(C)c1S(=O)(=O)Nc1ccc2c(c1)C(=O)N([C@@H](C)CO)C[C@@H](C)[C@H](CN(C)Cc1ccc(C(F)(F)F)cc1)O2,-7.7,-0.3
C[C@H](CO)N1C[C@H](C)[C@H](CN(C)S(=O)(=O)c2cccs2)Oc2ccc(NC(=O)Nc3cccc4ccccc34)cc2C1=O,-8.8,0.0
c1ccc(-c2ccc3ccccc3n2)nc1,14,-6.2
C[C@H]1CN([C@@H](C)CO)C(=O)c2cccc(NS(=O)(=O)c3ccccc3)c2O[C@@H]1CN(C)Cc1ccc2c(c1)OCO2,2.6,nt
c1ccc(CSc2ccc3nnc(-c4ccccn4)n3n2)cc1,-0.3,0.4
C[C@@H]1CN([C@@H](C)CO)C(=O)c2cc(NC(=O)CCCN(C)C)ccc2O[C@H]1CN(C)C(=O)Nc1ccc2c(c1)OCO2,-7.3,-0.6
COC(CNC(=O)c1ccc2c(c1)ncn2C1CCCCCC1)OC,-6.7,0.1
CCC(C(=O)NCC1CCCO1)c1ccccc1 (centres undefined),-0.6,0.8
COc1ccc(S(=O)(=O)Nc2ccc3c(c2)C(=O)N([C@@H](C)CO)C[C@H](C)[C@H](CN(C)S(=O)(=O)c2cccs2)O3)cc1,-0.5,-0.9
C[C@H]1CN([C@@H](C)CO)C(=O)c2cc(NC(=O)c3ccncc3)ccc2O[C@@H]1CN(C)Cc1ccc(-c2ccccc2)cc1,3.8,0.2
Cc1c(C(=O)N2CCCc3ccccc32)sc2nc(-c3ccccc3)cn12,-1.4,nt
CS(=O)(=O)N(Cc1ccc(Cl)cc1)c1ccc(C(=O)N2CCCCCC2)cc1,-0.1,-0.4
COC(=O)C(C)Nc1cccc(Br)c1 (centres undefined),0.2,0.1
C[C@@H]1CN([C@@H](C)CO)C(=O)c2cccc(NS(=O)(=O)c3ccccc3)c2O[C@@H]1CN(C)C(=O)Nc1cccc2ccccc12,2.5,nt
COC(=O)c1sccc1S(=O)(=O)Nc1ccc(-c2cn3c(n2)SCC3)cc1,-0.1,-0.2
CS(=O)(=O)C1=C(N)C(=O)N(c2ccccc2)C1c1ccccc1 (centres undefined),-1.4,-0.3
C[C@H]1CN([C@@H](C)CO)C(=O)c2cc(NC(=O)CCCN(C)C)ccc2O[C@H]1CN(C)Cc1ccc(-c2ccccc2)cc1,0.3,1.6
CCN(CC)C(=S)NC1CCCCC1,-1.8,0.1
O=C(c1nn2c(C(F)(F)F)cc(-c3cccs3)nc2c1Cl)N1CCCc2ccccc21,-7.4,-0.4
COC(=O)[C@@H](N)CSC/C=C(\C)CC/C=C(\C)CCC=C(C)C,-4.8,-0.5
COc1ccc(S(=O)(=O)Nc2ccc3c(c2)C(=O)N([C@@H](C)CO)C[C@@H](C)[C@@H](CN(C)S(C)(=O)=O)O3)cc1,-0.1,0.3
O=c1cc(-c2ccccc2)nc2scc(-c3ccccc3)n12,-3.9,-0.7
CNC[C@@H]1Oc2c(NS(=O)(=O)c3ccc(C)cc3)cccc2C(=O)N([C@@H](C)CO)C[C@H]1C,-1.5,nt
C[C@@H]1CN([C@H](C)CO)C(=O)c2cccc(NS(=O)(=O)c3ccc(F)cc3)c2O[C@@H]1CN(C)Cc1ccncc1,-4.4,nt
CCCC(=O)Nc1ccc(-c2nc3cc4ccccc4cc3[nH]2)cc1,-0.5,-0.2
O=S(=O)(c1ccc(F)cc1)N1CCc2ccccc2C1,-1.0,nt
COc1ccc(S(=O)(=O)Nc2cccc3c2O[C@@H](CN(C)C(=O)Nc2ccc4c(c2)OCO4)[C@H](C)CN([C@H](C)CO)C3=O)cc1,-1.2,nt
CCOc1ccc([C@H]2[C@@H]3CN(Cc4ccccc4)CC=C3C(C#N)=C(N)C2(C#N)C#N)cc1,5.3,-0.7
COC(=O)c1sccc1N1C(=O)Nc2ccccc2N1O,4.4,-0.2
CSc1nc(O)cc(=O)[nH]1,3.2,0.1
C[C@H](CO)N1C[C@H](C)[C@H](CN(C)C(=O)Nc2ccc(F)cc2)Oc2ccc(NC(=O)CCC(F)(F)F)cc2C1=O,10,0.6
Oc1ccc([C@H]2Oc3cc(O)cc(O)c3C[C@H]2O)cc1,-2.3,0.5
Cc1cc(OCC(=O)N(Cc2ccc(Cl)cc2)Cc2ccco2)cc(C)c1Cl,-3.5,-0.4
Cc1cc(C(=O)Nc2cccc3c2O[C@H](CN(C)Cc2ccc4c(c2)OCO4)[C@H](C)CN([C@@H](C)CO)C3=O)n(C)n1,2.8,nt
O=C1c2ccccc2C(Nc2ccccc2)N1Cc1ccccc1 (centres undefined),1.2,nt
CN(C)CCNC(=O)C12CC3(C)CC(C)(CC(C)(C3)C1)C2,0.9,1.2
C[C@H]1CN([C@@H](C)CO)C(=O)c2cc(NS(=O)(=O)c3ccccc3)ccc2O[C@H]1CN(C)Cc1ccncc1,1.3,-0.3
Cc1ccccc1NS(=O)(=O)c1ccc2c(c1)c(=O)n(C)c(=O)n2C,-1.6,nt
C[C@@H]1CN([C@@H](C)CO)C(=O)c2cccc(NC(=O)Nc3ccc(F)cc3)c2O[C@@H]1CN(C)Cc1ccc2c(c1)OCO2,-0.6,nt
Cn1nc(-c2ccccc2F)c2cc(C(=O)NCCCN3CCN(c4ccc(F)cc4)CC3)sc21,3.2,nt
O=c1c2cc(NC(=S)N3CCCC3)ccc2nc2n1CCCCC2,1.4,nt
COc1ccc(S(=O)(=O)N(C)C[C@H]2Oc3ccc(NC(=O)CCC(F)(F)F)cc3C(=O)N([C@@H](C)CO)C[C@@H]2C)cc1,-3.9,0.4
C[C@H](CO)N1C[C@H](C)[C@H](CN(C)Cc2ccc3c(c2)OCO3)Oc2ccc(NC(=O)Cc3cn(C)c4ccccc34)cc2C1=O,nt,0.0
CNC[C@@H]1Oc2c(NC(=O)c3ccc(-c4nccs4)cc3)cccc2C(=O)N([C@@H](C)CO)C[C@H]1C,6.7,nt
Cc1noc(C)c1NC(=O)N(C)C[C@@H]1Oc2ccc(NC(=O)Nc3ccccc3)cc2C(=O)N([C@H](C)CO)C[C@H]1C,1.2,-0.1
C[C@H]1CN([C@@H](C)CO)C(=O)c2cc(NC(=O)Cn3cnnn3)ccc2O[C@H]1CN(C)C(=O)Nc1ccc2c(c1)OCO2,-2.0,1.1
C[C@@H]1CN([C@@H](C)CO)C(=O)c2cc(NC(=O)c3ccncc3)ccc2O[C@@H]1CN(C)Cc1ccc(C(=O)O)cc1,-3.4,1.0
COc1ccc(CCn2c(=O)c3ccccc3n(CC(=O)N(C)c3ccccc3)c2=O)cc1OC,4.6,nt
CNC[C@H]1Oc2c(NC(=O)NC(C)C)cccc2C(=O)N([C@@H](C)CO)C[C@H]1C,7.1,nt
C[C@@H]1CN([C@@H](C)CO)C(=O)c2cc(NS(=O)(=O)c3cccs3)ccc2O[C@@H]1CN(C)C(=O)Nc1ccc(C(F)(F)F)cc1,4.2,-0.4
COc1ccc(S(=O)(=O)Nc2cccc3c2O[C@@H](CN(C)S(=O)(=O)c2ccc(C)cc2)[C@H](C)CN([C@@H](C)CO)C3=O)cc1,0.7,nt
Cc1ccc(S(=O)(=O)Nc2cccc3c2O[C@@H](CN(C)Cc2ccc(C(F)(F)F)cc2)[C@H](C)CN([C@H](C)CO)C3=O)cc1,4.3,nt
Cc1ccc(S(=O)(=O)N(C)C[C@@H]2Oc3c(NC(=O)Nc4ccccc4)cccc3C(=O)N([C@H](C)CO)C[C@H]2C)cc1,1.6,nt
O=C(O)CCCc1ccccc1,-2.7,-0.1
# The results go on:
SMILES,BJeLR viab HTS,A1 inhib
COC(=O)c1cccc(NC(=O)/C=C/c2ccc3c(c2)OCO3)c1,-2.1,-3.6
C[C@H]1CN([C@@H](C)CO)C(=O)c2cccc(NC(=O)Nc3ccccc3)c2O[C@@H]1CN(C)S(=O)(=O)c1cn(C)cn1,0.1,nt
O=C(CCN1CCc2ccccc2C1)c1ccc2c(c1)OCCO2,0.2,nt
COc1ccc(S(=O)(=O)N(C)C[C@@H]2Oc3c(NC(=O)Nc4cccc5ccccc45)cccc3C(=O)N([C@@H](C)CO)C[C@@H]2C)cc1,-1.7,nt
C[C@@H]1CN([C@H](C)CO)C(=O)c2cc(NC(=O)Cc3ccccc3)ccc2O[C@H]1CN(C)Cc1ccc2c(c1)OCO2,2.4,0.0
C[C@H](CO)N1C[C@H](C)[C@H](CN(C)C(=O)Nc2ccc(F)cc2)Oc2ccc(NC(=O)CCCN(C)C)cc2C1=O,-2.1,-0.1
C[C@H]1CN([C@@H](C)CO)C(=O)c2cccc(NC(=O)NC3CCCCC3)c2O[C@@H]1CN(C)C(=O)Nc1cccc2ccccc12,-1.1,nt
Cn1cnnc1SCC(=O)N1c2ccccc2Sc2ccc(Cl)cc21,1.5,-0.5
C[C@@H]1CN([C@H](C)CO)C(=O)c2cccc(NC(=O)Nc3ccccc3)c2O[C@@H]1CN(C)C(=O)Nc1cccc2ccccc12,-6.6,nt

# Screening results as filed in PubChem BioAssay.
